Assay outcomes (PubChem)
Mtb hypoxia inh – inhibitors of hypoxia-regulated fluorescent reporter in Mycobacterium tuberculosis. M. tuberculosis hypoxia-regulated fluorescent reporter, fluorescence. fluorescence inhibition, % (no concentration beside the values). 0.1% of 300,000 active. AID 1159583;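 active means 35 to 45% if threefold the growth effect, above 45% if 1.5-fold the growth effect; inactive means the rest, general growth blockers included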;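 further: wells of about 50 µL received 100 nL stock; 0% = vehicle wells and 100% = reference inhibitor wells; whole bacteria with a GFP reporter of the hypoxia response; strong numbers were not always called active; many hits fall short of the cut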
Bead autofluor – flagged as autofluorescent in microsphere protease counterscreen; AID 624483; fluorescence intensity (concentration not given with the values); 3.1% of 360,000 active; compound autofluorescence counterscreen, microsphere flow cytometry; stronger effect = higher value;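 active means at least 3 SD above the mean of all compounds, about 16000 in these data; inconclusive means too few beads counted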;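 further: 100 nL of 1 mM stock went into each well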
BJeLR viability – BJeLR cell viability loss | BJeLR (HRASV12) viability, CellTiter-Glo ATP luminescence, 48 h; reference of the scale not given here | inhibition, % (concentration not given with the values) | 0.17% of 300,000 active | AID 1554;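 active means replicate mean above 50%; inconclusive means above 50% but judged a plate artefact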;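 further: 50 nL library stock added to about 25 µL; numbers are from one replicate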
Sa ugtP lethal – growth inhibition of S. aureus ugtP deletion strain; S. aureus RN4220 ugtP deletion, OD600 growth, 16 h; some inactives read as strong as hits; growth inhibition, % (concentration not given with the values); 0.54% of 330,000 active; AID 1259309;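 active means z-score under -3 and OD600 up to 0.15 on both plates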;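 further: plate controls were untreated wells for no effect and antibiotic for full effect; wells of about 80 µL received 100 nL stock; the first replicate is given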
PrP 5UTR inh – inhibition of PrP 5' UTR reporter expression; cell-based PrP 5' UTR mRNA reporter, plate reader; 0.35% of 340,000 active; inhibition, % (concentration not given with the values); AID 488862;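 active means every replicate at 50% or more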;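 further: 0 = median of the neutral control wells; tested in H4 reporter cells; numbers are from one replicate; inactives centre near -14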
Sa RN4220 lethal – kills Staphylococcus aureus RN4220 | inhibition, % (test concentration not listed) | S. aureus RN4220 growth, OD600, 16 h | 0.33% of 330,000 active | AID 1259311;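 active means z-score of -3 or lower and OD600 up to 0.18 on both plates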;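 further: plate controls were untreated cells for no effect and reference antibiotic for full effect; stock transfer was 100 nL into about 80 µL; one replicate is shown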
Mtb hypoxia inh growth – recorded beside Mtb hypoxia inh, whose call it bears; growth inhibition, %; measured here: M. tuberculosis growth (absorbance);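 0% = vehicle and 100% = reference antibiotic; read after six days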
* hit, by the source's call; ? = inconclusive; . = no result given.

nr	SMILES	Bead autofluor	PrP 5UTR inh	Mtb hypoxia inh	Mtb hypoxia inh growth	BJeLR viability	Sa ugtP lethal	Sa RN4220 lethal
1	Cc1ccc(C(=O)N2C(=O)C(c3ccccc3)Oc3ccccc32)cc1 (centres undefined)	4479	13.2	0.4	11.9	7.9	7.9	-0.6
2	CC(C)C(=O)N1CCN(c2ccc(NC(=O)c3ccc4c(c3)OCCO4)cc2)CC1	4030	-2.3	1.2	1.5	-5.0	5.7	9.7
3	CCc1ccccc1NC(=O)CC(NCc1ccccc1)C(=O)O (centres undefined)	6856	-11.1	4.1	2.9	1.5	1.3	-0.1
4	Cc1ccc(C)c(CN2C(=O)c3ccccc3S(=O)c3ccc(C(=O)N4CCN(c5ccccn5)CC4)cc32)c1 (centres undefined)	2709	31.1	.	.	19.9	.	.
5	Cc1nc(Nc2ccc(Cl)cc2Cl)sc1C(=O)Nc1ccccc1	2135	-16.1	-20.3	-13.0	10.5	-27.7	7.9
6	Cc1ccccc1Cn1nc(C)c(NC(=O)C2(C)CC2(Cl)Cl)c1C (centres undefined)	2453	-10.2	7.6	-4.9	2.4	11.6	1.6
7	COCCn1nnnc1C(c1cc2cc(C)ccc2[nH]c1=O)N1CCc2ccccc21 (centres undefined)	3361	-7.4	1.2	6.5	-4.6	-1.1	-1.9
8	Cc1ccc2oc3c(c(=O)c2c1)C(c1cccc(O)c1)N(c1ccccn1)C3=O (centres undefined)	5994	17.2	.	.	1.3	2.2	0.6
9	CCN=C(NCC)SC1CC(=O)N(CCc2ccccc2)C1=O (centres undefined)	6131	.	2.3	-3.5	-7.3	9.4	0.2
10	CCc1nc(SCc2ccc(Br)cc2)n[nH]1	3840	-39.4	14.3	3.2	-5.2	8.2	2.9
11	COCCn1c(-c2ccccc2F)n[nH]c1=S	2411	-24.5	6.8	4.5	1.7	-4.1	0.0
12	Cc1ccccc1NS(=O)(=O)c1cc(C(=O)N2CCCC2)ccc1Cl	4466	-3.7	6.9	2.0	-10.9	3.4	2.2
13	COc1cc(F)ccc1S(=O)(=O)n1c(C)nc2ccccc21	3795	-18.7	1.8	-6.9	-5.0	-1.3	3.7
14	COc1cc(Cn2c(-c3nonc3N)nc3ccccc32)ccc1C	2631	16.2	0.9	13.5	28.2	3.0	-0.4
15	O=C(O)c1ccc(-n2cccc2/C=C2/NC(=O)N(c3ccccc3)C2=O)cc1	4871	-24.1	8.7	4.5	12.1	1.2	11.6
16	Cc1cnc2c(C(=O)O)cnn2c1	4397	-25.3	2.2	3.6	-8.0	6.0	3.2
17	CCCOc1ccc(-c2nn(-c3ccccc3)cc2/C=C2\SC(=S)N(C3CCS(=O)(=O)C3)C2=O)cc1 (centres undefined)	5968	-20.8	4.9	0.8	1.0	-1.4	4.7
18	CC1CC(=O)N(CC(=O)Nc2cccc(F)c2)c2ccccc2S1(=O)=O (centres undefined)	5476	-10.5	1.1	13.2	-1.5	-2.4	0.7
19	O=C(/C=C/c1cc([N+](=O)[O-])ccc1OC(F)F)Nc1cccc([N+](=O)[O-])c1	4781	-11.7	-4.4	8.0	22.3	0.4	2.4
20	COC(=O)C(C)Oc1cc(OC(C)C(=O)OC)c2c(C)c(Cl)c(=O)oc2c1 (centres undefined)	3938	-54.1	10.8	14.5	-7.2	5.2	13.6
21	COc1cc(C(=O)N/N=C/c2cn(Cc3ccccc3)c3ccccc23)ccc1O	4719	-9.2	.	.	6.8	.	.
22	COc1c(O)ccc(C=C(C#N)c2nc3ccccc3[nH]2)c1[N+](=O)[O-]	.	.	-3.8	-4.2	.	1.0	15.7
23	CC(C)CCN(C(=O)c1cc(=O)[nH]c2ccccc12)c1c(N)n(Cc2ccccc2)c(=O)[nH]c1=O	6266	-13.9	12.9	11.2	.	5.2	-1.7
24	CCOc1ccc(-c2nn[nH]n2)cc1	8906	-30.0	12.3	6.5	-1.3	6.8	4.4
25	CCOc1ccc(NS(=O)(=O)c2ccc(NC(=O)C3CC3)cc2)cc1	6908	-5.0	-5.3	8.4	6.8	-0.7	1.7
26	CCN1CCN(C(=O)CCNC(=O)Cn2ccc3ccccc3c2=O)CC1	8946	-27.6	7.1	11.5	1.5	-0.4	4.3
27	C=CCNC(=S)N/N=C1\CCS(=O)(=O)c2ccccc21	3592	-8.8	.	.	-11.7	.	.
28	CSc1nc(N)nc(SCC(=O)OC(C)C)c1C#N	5944	-33.9	5.0	12.8	-3.7	0.2	2.3
29	COc1ccc(C(C)=O)cc1CC(C(=O)c1ccc(C)cc1)N(C)C (centres undefined)	2100	-14.8	2.2	10.5	6.6	-2.0	4.9
30	CN(c1ncc(C(F)(F)F)cc1Cl)n1cc(C(N)=O)c2ccccc2c1=O	3379	8.1	.	.	4.0	5.6	2.1
31	O=C1C2C(C3CC3)N3C(=O)CN(Cc4ccccn4)C(=O)[C@@]3(Cc3ccccc3)C2C(=O)N1c1ccccc1 (some centres undefined)	.	.	5.6	4.9	.	0.6	4.6
32	CCCCN(C(=O)c1ccc(C#N)cc1)c1c(N)n(CCC)c(=O)[nH]c1=O	3823	-21.4	-2.7	2.6	-8.6	-1.7	2.6
33	COc1ccc(NC(=O)c2cnn3c(C(F)(F)F)cc(-c4ccco4)nc23)cc1OC	2000	-10.3	.	.	6.0	-0.3	6.3
34	Cc1cc(C)c(S(=O)(=O)Nc2nnc(C3CCCCC3)s2)c(C)c1	5864	-23.6	5.5	3.9	4.8	-0.8	4.5
35	CCOc1ccc2c(c1)[nH]c(=S)n2C	4292	50.8	-4.1	1.5	2.8	4.1	16.1
36	CCCc1cc2c(cc1NC(=O)c1ccccc1C)OCO2	2478	-27.9	7.7	-1.4	1.8	14.4	10.1
37	CN(C(=O)c1cccc(C#CC(C)(C)O)c1)C1CCCN(Cc2ccccc2F)C1 (centres undefined)	3954	-7.4	0.2	12.4	4.2	3.6	-0.2
38	Cc1cccc(NC(=O)CCCN2C(=O)c3cccc4cccc(c34)C2=O)c1	7873	-5.3	3.5	-1.7	-3.3	14.9	7.6
39	c1ccc(Nc2nc(-c3cccnc3)cs2)nc1	4569	-91.6	4.1	7.2	-3.2	0.0	2.0
40	O=C1NCCN(Cc2ccc(Cl)c(F)c2)C1CC(=O)N1CCCCO1 (centres undefined)	2254	-0.1	-13.0	5.5	-3.2	0.9	2.3
41	Cn1ncc([N+](=O)[O-])c1C(=O)N1CCCCCC1	5681	-0.9	-3.2	5.4	1.5	2.0	-1.6
42	O=C(CN1C(=O)CCC1=O)Nc1cccc2c1C(=O)NC2=O	4504	-7.7	-0.5	7.7	-2.1	5.5	1.1
43	O=C(c1ccc(S(=O)(=O)NCc2ccco2)cc1)N1CCN(Cc2ccccc2F)CC1	?	-9.9	5.4	-6.4	.	1.9	2.7
44	CCOc1ccc(/C=N/Nc2ccc(C(F)(F)F)cc2[N+](=O)[O-])cc1O	2598	-6.5	.	.	9.4	.	.
45	Cc1cc(C)c(S(=O)(=O)c2cccc(Cl)c2)c(Cl)n1	3490	-16.5	5.7	7.9	6.3	4.8	5.1
46	O=C(Cn1cc(C(F)(F)F)ccc1=O)OCC(=O)c1ccc[nH]1	3045	-8.9	4.5	4.3	.	0.2	1.1
47	Cc1ccc(NC(=O)CSc2n[nH]c(-c3ccncc3)n2)c(C)c1	4294	0.6	0.7	-1.8	-5.7	7.4	8.2
48	COc1cc(NS(=O)(=O)c2ccc(NC(=O)c3cccnc3)cc2)ncn1	6729	11.6	3.0	12.6	-1.5	-2.6	0.2
49	CCCCn1nc2cc(C(=O)NC[C@@H]3CCCO3)ccc2c1OCC	4003	-6.4	.	.	-2.1	.	.
50	CC1SC(c2ccccc2)N(CC(O)c2ccc([N+](=O)[O-])cc2)C1=O (centres undefined)	2457	-6.3	9.1	5.9	12.6	-1.4	0.4
51	O=c1cc(C(F)(F)F)[nH]c(=S)n1-c1ccccc1	3830	-10.1	13.6	6.6	-17.2	5.0	5.2
52	Cc1cccc(OCCCC(=O)Nc2ccc(S(=O)(=O)Nc3onc(C)c3C)cc2)c1C	4548	-12.3	.	.	1.7	4.6	-3.8
53	CN(C)/C=C(\C#N)C(=O)Nc1ccc(O)cc1F	?	-17.1	11.1	6.0	-5.6	2.6	6.5
54	COc1ccccc1N1CCN(C2CCN(S(=O)(=O)c3ccc(NC(C)=O)cc3)CC2)CC1	3960	-44.1	0.5	3.4	6.7	-1.4	0.3
55	Cc1cccc(-n2c(O)c(C=Nc3ccccc3O)c3ccccc3c2=O)n1	4837	-9.4	-6.1	-6.3	8.5	-2.7	1.3
56	COc1cccc(CNC(=O)Cn2ccc([N+](=O)[O-])n2)c1	4021	14.4	0.8	1.0	-4.2	0.8	0.3
57	Cc1ccc2sc(NC(=O)C3CC3)nc2c1C	5710	-44.1	10.6	2.9	-1.5	-12.4	0.2
58	N#C/C(=C\c1cc2c(cc1Br)OCO2)c1ccc(C(=O)O)cc1	3515	-9.9	19.7	13.3	-4.7	6.2	4.5
59	COCc1nnc(NC(=O)CCS(=O)(=O)c2ccccc2)s1	5813	-16.9	13.5	-0.3	10.3	4.1	4.5
60	Cc1cc(=O)oc2cc(OC(=O)c3cncc(Br)c3)ccc12	4416	-23.4	6.1	7.7	4.7	1.9	4.2

Other compounds.
nr	SMILES	Bead autofluor	PrP 5UTR inh	Mtb hypoxia inh	Mtb hypoxia inh growth	BJeLR viability	Sa ugtP lethal	Sa RN4220 lethal
61	COc1cc(/C=C/c2c([N+](=O)[O-])c(=O)n(C)c(=O)n2C)cc(OC)c1OC	6044	-34.4	6.1	9.3	-2.3	-6.0	4.1
62	Cc1cccc(S(=O)(=O)Nc2ccc(S(=O)(=O)Nc3nccs3)cc2)c1	3663	-23.3	4.3	7.6	.	-0.6	8.2
63	CCC(C)(C)NC(=O)CN(C(=O)CNS(=O)(=O)c1ccc(F)cc1)c1ccc2c(c1)OCCO2	4641	-8.6	6.9	0.1	-4.3	1.5	1.8
64	Cc1nnc(SCC(=O)NC(C)(C)C)n1NCc1c(F)cccc1Cl	3851	-14.1	-4.2	-5.4	7.4	3.8	1.5
65	Cc1c(C)c2c(OCC(=O)NCc3ccncc3)cc3c(c2oc1=O)CCC(C)(C)O3	5760	-8.9	.	.	10.7	2.6	1.8
66	Cc1cccc(N(C(=O)c2ccco2)C(C(=O)NC2CCCC2)c2cccnc2)c1C (centres undefined)	5638	2.8	3.6	1.6	0.4	3.5	3.5
67	Cc1csc(NC(=O)c2cc3c(s2)CCCCC3)n1	3158	48.8	.	.	14.0	-6.5	4.4
68	COc1ccc(OC)c(/C=N/NC(=O)c2ccc(Cn3cc([N+](=O)[O-])cn3)o2)c1	10403	-21.3	.	.	-0.6	.	.
69	CCC1CCCCN1C(=O)CSc1nc(C)cc(C)n1 (centres undefined)	3131	-25.8	0.9	2.4	-8.8	-6.9	1.0
70	O=C(CCC(=O)c1ccc(F)cc1)NN1C(=O)NC2(CCCCC2)C1=O	?	-1.8	8.3	1.5	5.9	2.7	2.3
71	COC(=O)c1ccc(Cl)c(NC(=O)CSc2nnc(-c3ccncc3)o2)c1	6220	-5.0	4.6	5.9	2.7	11.9	-4.4
72	CN(C)c1ccc(C(=O)NN=CC23CC[C@@H](O)CC2(O)CC[C@@H]2[C@@H]3CCC3(C)C(C4=CC(=O)OC4)CCC23O)cc1 (some centres undefined)	.	.	4.9	-2.2	.	7.6	1.6
73	CCOC(=O)C[C@H]1c2ccc(C(F)(F)F)cc2S(=O)(=O)N1C(C)(C)C	4053	-13.3	.	.	4.6	.	.
74	COc1ccc(-c2noc(CCC(=O)NCCCN3CCN(c4ccc(F)cc4)CC3)n2)cc1	2681	-3.0	-3.8	-3.8	0.1	12.1	1.6
75	CCNC(=S)NNC(=O)c1cc(-c2cc(C)ccc2C)nc2ccccc12	19654*	-48.1	5.6	8.3	-4.8	11.4	2.7
76	COc1ccc(C2c3ccc4ccccc4c3Oc3ncn(CCCN(C)C)c(=N)c32)cc1 (centres undefined)	3568	4.7	.	.	53.7*	.	.

2 neighbouring records already listed:
nr	SMILES	Bead autofluor	PrP 5UTR inh	Mtb hypoxia inh	Mtb hypoxia inh growth	BJeLR viability	Sa ugtP lethal	Sa RN4220 lethal
64	Cc1nnc(SCC(=O)NC(C)(C)C)n1NCc1c(F)cccc1Cl	3851	-14.1	-4.2	-5.4	7.4	3.8	1.5
65	Cc1c(C)c2c(OCC(=O)NCc3ccncc3)cc3c(c2oc1=O)CCC(C)(C)O3	5760	-8.9	.	.	10.7	2.6	1.8
